# Bioassay records from PubChem.
# Vaccinia mCherry: qHTS for Stage-Specific Inhibitors of Vaccinia Orthopoxvirus: mCherry Reporter Primary qHTS | 310,000 compounds, 0.63% hits | Vaccinia virus mCherry reporter infection, fluorescence; about a quarter of the inactives have no number | Potency, µM (top dose mostly 36.5 µM), inactives show at the highest dose activity change, negative = inhibition, hits mostly inhibitors; active = well fitted inhibition curve with a large enough effect; inconclusive = small, poorly fitted or top-dose-only effect; inactive = no such curve, though single readings can be large or run the other way; tested in A549 cells; also: nearly all actives have a fitted effect of over 35% in size; inactives centre near -10
# VACV Venus inh: qHTS for Stage-Specific Inhibitors of Vaccinia Orthopoxvirus: Venus Reporter Primary qHTS; Vaccinia virus Venus reporter expression, fluorescence; 330,000 compounds, 0.46% hits; Potency, µM (highest dose often 36.5 µM), inactives show top-dose activity change, negative = inhibition, actives largely listed as inhibitors; active means well fitted inhibition curve with a large enough effect; inconclusive means small, poorly fitted or top-dose-only effect; inactive means no such curve, though single readings can be large or run the other way; tested in A549 cells; also: nearly all actives have a fitted effect of over 30% in size; inactives centre near -10
# Active calls of the source: *; i = inactive; ? = inconclusive; . = not tested or not shown; & = joins results of further samples; [ ] = dose if it differs, or a comment. % is scaled to controls: 0 for no effect and ±100 for the full control effect; potency is read from the fitted curve at half-maximal effect. Hits appear at their usual frequency; 0.82% or so of the library scored in one or more.
item | Molecule | Vaccinia mCherry | VACV Venus inh
1 | CCOc1cc(/C=C2\C(=O)N(c3nc(-c4ccc(Br)cc4)cs3)N=C2c2ccccc2)ccc1O | -3% | 4%
2 | Cc1ccc(NC(=O)C2CCN(S(=O)(=O)c3cccc4cccnc34)CC2)nc1 | i | -8%
3 | O=C(CSc1nc2c(c(=O)n1-c1ccc(Br)cc1)SCC2)NCC1CCCO1 (configuration not stated) | -2% | -5%
4 | O=C(/C=C/c1ccc(S(=O)(=O)N2CCOCC2)cc1)NCc1ccccc1Cl | -12% | -6%
5 | COc1ccc2cc(CN(CC3CCCO3)S(=O)(=O)c3ccc(C(C)=O)cc3)c(=O)[nH]c2c1 (configuration not stated) | i | -5%
6 | CC(C)CN(C(=O)CCC1CCCCC1)c1c(N)n(CC(C)C)c(=O)[nH]c1=O | -27% | -9%
7 | CC(C)C(OC(=O)c1cc2occc2n1C)C(=O)NCc1ccc2c(c1)OCO2 (configuration not stated) | i | -18%
8 | CCOc1ccc(NS(=O)(=O)c2cc(OC)ccc2OC)cc1 | -17% | -14%
9 | CC(=O)Nc1ccc2nc(-c3cccs3)[nH]c2c1 | -17% | -9%
10 | CCN(CC)C(=O)c1ccc(COc2ccccc2Cl)o1 | -14% | 2%
11 | O=C(CSc1nnc(CNC(=O)c2ccco2)o1)Nc1ccccc1F | -6% | -8%
12 | CCCCCCOc1ccc(-c2nc3ccc(Br)cc3c(=O)o2)cc1 | 2% | -2%
13 | Cc1ccc(/C=C2/CNC/C(=C/c3ccc(C)cc3)C2=O)cc1 | ? | ?
14 | COc1ccc(-n2c(CCC(=O)O)ccc2-c2ccccc2)c(OC)c1 | -11% | -9%
15 | Cc1cc(C)c2cc(C#N)c(N3CCCN(C(=S)NCCCN(C)C)CC3)nc2c1 | i | -28%
16 | CN(C)c1ccc(NC(=O)CN2C(=O)CN=C(c3ccccc3)c3ccccc32)cc1 | . | ?
17 | CN(CC(=O)O)c1ccc(C(F)(F)F)cc1[N+](=O)[O-] | -10% | -10%
18 | CN1/C(=C\C=Nc2cc(S(=O)(=O)N3CCOCC3)ccc2N2CCOCC2)C(C)(C)c2ccccc21 | i | -8%
19 | CCCCNC(=S)N(CCN(C)C)Cc1cc2cc3c(cc2[nH]c1=O)OCCO3 | i | -10%
20 | COc1cc(C(O)c2nc(-c3cccc4cccnc34)cs2)ccc1F (configuration not stated) | ? | -9%
21 | CCOC(=O)CNC(=O)CSc1nnc(NC(=O)c2ccccc2Cl)s1 | -7% | -9%
22 | COc1cccc(C(N)=O)c1OC(=O)Cc1ccccc1F | -1% | -13%
23 | O=C(CNS(=O)(=O)c1cccs1)N1CCCC1 | . | 22%
24 | CCn1ccc2cc(OC)ccc2c1=S | i | -2%
25 | Cc1ccc(CCNC(=O)c2c(C)oc3nc(C)nc(N4CCOCC4)c23)cc1 | i | -2%
26 | O=C(CSc1ccc(-c2ccc(F)cc2)nn1)Nc1ccc2c(c1)OCCO2 | -5% | -7%
27 | O=C1NC(=O)N(c2ccc3c(c2)OCO3)C(=O)/C1=C\c1ccc(N2CCCCC2)o1 | -6% | 0%
28 | Cc1cccc(C)c1NS(=O)(=O)c1ccc2c(c1)[C@H]1C=CC[C@H]1[C@@H](c1ccc(Cl)cc1)N2 | -3% | 0%
29 | CCN(CC)c1ccc(C(=O)N/N=C/c2ccc(OC)cc2OC)cc1 | ? | -17%
30 | c1ccc(COc2cccc(-c3cc4nc(NCCN5CCOCC5)ccn4n3)c2)cc1 | -16% | -5%
31 | COC(=O)Nc1ccc2c(c1)Nc1ccccc1CC2 | ? | -13%
32 | COc1cc(C(=O)OC(C)CN2CCOCC2)cc(OC)c1OC (configuration not stated) | i | -23%&-14%
33 | COc1ccc(CNC(=O)C[C@H]2C(=O)N(c3ccccc3)C[C@@H]2Cc2ccccc2)cc1 | -14% | -15%
34 | Cc1ccc(-c2ccc(CCC(=O)O)n2C(C)C)cc1 | i | 9%
35 | COc1ccc(C(=O)Nc2ccc(S(=O)(=O)N3CCCC3)cc2)cc1 | -17% | -8%
36 | CCOc1ccc(NC(=O)CN2C(=O)C(c3ccccc3)=NC23CCC(C)CC3)cc1 (configuration not stated) | -14%[7.34 µM] | -13%[7.34 µM]
37 | OC(COc1ccc(Cl)cc1)CN1CCCCC1 (configuration not stated) | -20% | -19%
38 | Cc1ccc(C(=O)CCS(=O)(=O)c2ccc(Br)cc2)cc1 | -8% | -8%
39 | CC(=O)Nc1cccc(-c2nc3ccccc3n2C(C(=O)NC(C)(C)C)C2CC2)c1 (configuration not stated) | -1% | 11%
40 | COc1ccc(OCc2nc3c4c(ncn3n2)-c2ccccc2CC42CCCC2)cc1 | -13% | 3%
41 | c1ccc(-c2ccc(-c3nc(-c4ccccn4)no3)cc2)cc1 | -25% | -10%
42 | CC(=O)OC1CC2(C)C(CCC2(O)C(C)=O)C2CCC3C(Cl)C(=O)CCC3(C)C12 (configuration not stated) | -2% | -7%
43 | CCCCCCn1c(O)c(/C=N/N2CCCCCC2)c(=O)[nH]c1=O | -9%[7.34 µM] | -6%[7.34 µM]
44 | Nc1ccc(S(=O)(=O)Nc2nc(-c3ccccc3)cc(-c3ccccc3O)n2)cc1 | -4% | -23%
45 | CC(C)(C)N(Cc1ccccc1)C(=O)CN1C(=O)c2ccccc2C1=O | -9% | -12%
46 | COc1ccc(N2CC(C(=O)OCC(=O)c3ccccc3)CC2=O)cc1 (configuration not stated) | -9% | -2%
47 | COCc1cc(C)n(CC(=O)Nc2ccc(N3CCOCC3)cc2)c(=O)c1C#N | 0% | -13%
48 | CC(=O)N1CCN(c2ccccc2NC(=O)COc2cc(C)ccc2C(C)C)CC1 | . | -32%
49 | Cc1cccc(C)c1NC(=O)Cn1nc(-c2ccc(Cl)s2)ccc1=O | -23% | -15%
50 | CC(C)COc1ccc(C(=O)Nc2ncn[nH]2)cc1 | i | -15%
51 | Cn1nc2sc3ccccc3n2c(=O)c1=O | i | -5%
52 | CCCCN(C(=O)C1=CC=CN2CCS(=O)(=O)N=C12)c1ccccc1 | i | -15%
53 | Cc1ccc(-c2cc3c(N4CCN(c5cc(C)ccc5C)CC4)nccn3n2)cc1 | -8% | -7%
54 | O=C(NC1CCCCC1)c1cccc2c1C(=O)c1ccc(-c3ccc(OC(F)(F)F)cc3)cc1S2(=O)=O | ? | ?
55 | COc1ccc2nc3ccccc3nc2c1NC(=O)c1ccc(Br)cc1 | -10% | 7%
56 | CCCn1nnc(NC(=O)c2ccc(Br)cc2)n1 | -16% | -7%
57 | CCCCNCc1cc(Br)c(OCc2cccs2)c(OC)c1 | . | ?
58 | Cc1ccc(/C=N/NC(=O)c2ccoc2C)s1 | -27% | -14%
59 | COc1cccc(N2C(=O)CSC23C(=O)N(CC(=O)Nc2cc(C)ccc2C)c2ccccc23)c1 (configuration not stated) | 1% | -1%
60 | Cc1cccc(/C(N)=N/OC(=O)COc2ccccc2Cl)c1 | -8% | -5%

# (list continues)
item | Molecule | Vaccinia mCherry | VACV Venus inh
61 | CCOC(=O)N1CCN(C(=O)CN2C(=O)COc3ccc(C(C)(C)C)cc32)CC1 | -1% | 4%
62 | Cc1cccc(CNC(=O)Cn2nc(C)n3c(cc4cc(F)ccc43)c2=O)c1 | -9% | 2%
63 | CCOC(=O)c1sc2ncn(C(CC)C(=O)OC)c(=O)c2c1C (configuration not stated) | -13% | -6%
64 | N#Cc1cnn2c3c(cnc12)C(=O)N1CCc2ccccc2C1C3 (configuration not stated) | -2% | -13%
65 | O=C(NCc1cccnc1)NC(C(F)(F)F)C(F)(F)F | . | -7%
66 | COc1ccc(C2Nc3ccccc3C(=O)N2Cc2ccco2)cc1COc1c(C)cccc1C (configuration not stated) | ? | ?
67 | COC(=O)[C@@]1(Cc2ccccc2)C=C[C@@H](C)N1C(C)=O | i | -8%
68 | CC(=O)Nc1ccc(NS(=O)(=O)c2ccc3[nH]c4c(c3c2)CCCCC4)cc1 | ? | 7.9µM*
69 | O=C(N/N=C/c1cc([N+](=O)[O-])ccc1O)c1ccc(COc2ccc3c(c2)CCC3)o1 | ? | -15%
70 | Cc1cccc(NC(=O)CN(c2ccc(F)cc2)S(C)(=O)=O)c1 | -6% | -16%
71 | CCOC(=O)c1nc2ccccc2s1 | . | 0%
72 | CCN(CC)CCSc1c(C(C)C)cnc2c1c(=O)n(C)c(=O)n2C | 4% | -2%
73 | CCC(c1nnnn1Cc1ccc2c(c1)OCO2)N1CCN(CC)CC1 (configuration not stated) | i | -13%
74 | COc1ccccc1NC(=O)C1CC(O)CN1C(=O)Oc1ccccc1 (configuration not stated) | -9% | -18%
75 | Cc1ccc(-c2nc3ncccn3c2Nc2ccc3c(c2)OCO3)o1 | i | -14%
76 | COc1ccc(N2CC(C(=O)N/N=C/c3cc([N+](=O)[O-])ccc3O)CC2=O)cc1 (configuration not stated) | i | -10%
77 | COc1cc(OC)c(OC)cc1CN1CCC(n2cc(C(=O)N3CCCCC3)nn2)CC1 | -15% | -12%
78 | O=C(CC(c1cccs1)N1Cc2ccccc2C1=O)Nc1ccccc1F (configuration not stated) | -19% | -7%
79 | O=C(NCCN1CCC(n2c(=O)[nH]c3ccccc32)CC1)c1ccc(Cl)cc1Cl | -17% | -17%
80 | O=C(NC1CCC(=O)N(CCOc2ccccc2)CC1)OCc1ccccc1 (configuration not stated) | i | -6%&-11%
81 | COC(=O)CC1C(=O)NCCN1C(=O)c1c(F)cccc1F (configuration not stated) | 4% | -12%
82 | COc1ccc(C(O)c2nccc3cc(OC)c(OC)cc23)cc1OC (configuration not stated) | -7% | -1%
83 | Cc1ccccc1-c1cc(C(=O)NCc2cccc(Br)c2)n(CC2CC(c3cccnc3)=NO2)n1 (configuration not stated) | -6% | ?
84 | Cc1cc(C)n(-c2nc3cc(Cl)c(Cl)cc3nc2Nc2ccc(F)cc2C)n1 | 1% | -10%
85 | N#CCC(=N)N1CCN(c2ccccc2Cl)CC1 | . | -23%
86 | CC1(Oc2cccnc2Cl)CCN(Cc2ccc(OC(F)(F)F)cc2)C1 (configuration not stated) | 4% | -10%
87 | CCOC(=O)C1(C)NC(c2cccs2)C2C(=O)N(c3ccccc3)C(=O)C21 (configuration not stated) | -6% | -5%
88 | O=C1C2C3C=CC(C3)C2C(=O)N1c1ccccc1OS(=O)(=O)c1ccccc1 (configuration not stated) | -14% | -1%
89 | CCOC(=O)c1cc(CC)sc1NC(=O)C1CC(=O)NN1Cc1ccccc1 (configuration not stated) | ? | -28%
90 | CN1C(=O)C(=Cc2ccccc2OCCOc2ccc([N+](=O)[O-])cc2)C(=O)N(C)C1=O | i | -8%

# Complete entries from above. Screens in order: Vaccinia mCherry, VACV Venus inh
# COc1ccc(N2CC(C(=O)N/N=C/c3cc([N+](=O)[O-])ccc3O)CC2=O)cc1 (configuration not stated) as listed: i, -10%
# COC(=O)[C@@]1(Cc2ccccc2)C=C[C@@H](C)N1C(C)=O as listed: i, -8%
# CCOC(=O)c1nc2ccccc2s1 as listed: ., 0%
# CCN(CC)CCSc1c(C(C)C)cnc2c1c(=O)n(C)c(=O)n2C as listed: 4%, -2%
# O=C(NCCN1CCC(n2c(=O)[nH]c3ccccc32)CC1)c1ccc(Cl)cc1Cl as listed: -17%, -17%

# Back to the main list with the 2 entries that preceded the break.
item | Molecule | Vaccinia mCherry | VACV Venus inh
89 | CCOC(=O)c1cc(CC)sc1NC(=O)C1CC(=O)NN1Cc1ccccc1 (configuration not stated) | ? | -28%
90 | CN1C(=O)C(=Cc2ccccc2OCCOc2ccc([N+](=O)[O-])cc2)C(=O)N(C)C1=O | i | -8%
91 | COc1ccc(-c2ccc(NS(=O)(=O)c3ccc(OC)c(OC)c3)cc2)nn1 | i | -6%
92 | Cc1oc2c(c(C)cc3oc(=O)c(CC(=O)NCc4ccccc4)c(C)c32)c1C | -9% | -10%
93 | COc1ccc(C(=O)O)cc1S(=O)(=O)Nc1ccccc1Cc1ccccc1 | 1% | -5%
94 | COc1ccc(CC(=O)Nc2cccc(-c3ccc4nnc(C)n4n3)c2)cc1OC | i | 5%
95 | O=C(COc1ccccc1Cl)NCc1ccco1 | -15% | -12%
96 | COc1ccc(NC(=O)c2cccn2-c2nnc(N3CCCCC3)s2)cc1 | -19% | -4%
97 | COc1cccc(CNC(=O)CCS(=O)(=O)c2ccc3c(c2)CC(C)N3C(=O)C2CC2)c1 (configuration not stated) | -4% | -5%
98 | COc1ccccc1NC(=O)C(=O)NCCC1CCCCN1S(=O)(=O)c1ccc(F)cc1 (configuration not stated) | ? | -28%
99 | CCCCN(CC)CCCNC(=O)c1ccc(CS(=O)(=O)c2c(Cl)cccc2Cl)o1 | -18% | -17%
100 | CN(CC(=O)Nc1cccc2ccccc12)C(=O)c1ccc(NC(=O)CC#N)cc1 | -28% | 9%
101 | COc1ccc(NC(=O)C2CC(=O)OC2c2ccccc2)cc1 (configuration not stated) | -7% | 6%
102 | Cc1noc(C(=O)Nc2cccnc2Cl)c1Cl | -1% | -5%
103 | O=C(NC(=S)N1CCN(c2ccc(O)cc2)CC1)c1ccco1 | -3% | -11%
104 | COc1ccc(OC)c(NC(=O)NCCCCc2ccccc2)c1 | -16% | -19%
105 | CCc1cc(C(=O)O)c(NC(=O)C(c2ccccc2)c2ccccc2)s1 | -16% | -13%
106 | Cc1ccc(NC(=O)c2ccccn2)cc1S(=O)(=O)N1CCOCC1 | -3% | -12%
107 | O=c1cc(CSc2nc(NCc3ccc(Cl)cc3)c3ccccc3n2)nc2ccc(Cl)cn12 | -15% | 3%
108 | CC(C)c1noc(-c2ccccc2OCC(=O)Nc2ccc([N+](=O)[O-])cc2)n1 | 1% | -3%
109 | Cc1c(NC(=O)COC(=O)Cc2ccc(Cl)cc2)c(=O)n(-c2ccccc2)n1C | -2% | 4%
